# RE007 growth inh: less growth of the S. pombe RE007 Vpr strain | S. pombe RE007 Vpr strain, BacTiter-Glo ATP luminescence, 24 h; control for the full effect not named in the record | Potency, µM (series often up to 92.2 µM), for the others: top-dose activity change, negative = less growth | 0.21% of 360,000 active | AID 651644; active = well fitted falling curve with a large enough effect; inconclusive = small, poorly fitted or top-dose-only effect; inactive = no such curve, though single readings can be large or run the other way;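 note: % is set by controls: 0 for no effect and ±100 for the full control effect; nearly all actives have a fitted effect of over 50% in size; the assay follows cell death caused by Vpr and the record does not say whether a fall means rescue or toxicity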
#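 Fission yeast RE007 carrying one integrated HIV-1 vpr copy, seeded at OD 0.01 in PMG+AL medium with 23 nL pinned compound. Grown 24 h at 30 degrees; viability read by BacTiter-Glo luminescence after 5 min.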
# NS1 function inh: blocks influenza NS1 protein function. S. cerevisiae slowed by influenza A NS1, growth recovery by OD600. Potency, µM (titrated, usually from 46.1 µM), inactives show at the top dose activity, positive = more growth. 0.4% of 270,000 active. AID 2326; note: actives are rising curves; nearly all actives have a fitted effect of over 50% in size
#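 S. cerevisiae expressing influenza A NS1, grown in glucose, washed, then diluted 1:100 into pH 6.0 -URA galactose medium with 23 nl compound. Growth recovery read as OD600; NS1-free strain serves as control.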
# SARS PLpro yeast: inhibitors of SARS-CoV papain-like protease in yeast. S. cerevisiae expressing SARS-CoV PLpro, growth rescue; control for the full effect not named in the record. Potency, µM (doses to about 32.9 µM), for inactives: at the top dose activity, positive = growth rescue. 0.19% of 330,000 active; note: 0% is about no effect; nearly all actives have a fitted effect of over 55% in size; growth read by luminescence after 48 h
# Cruzain inh Det: blocks cruzain activity in presence of Triton detergent. P25779. purified cruzain, Z-FR-AMC fluorescence, 0.01% Triton. Potency, µM, without a hit: max response, negative = inhibition, actives largely listed as inhibitors. 0.43% of 200,000 active; active = well fitted curve in the direction sought with a large enough effect; inconclusive = small, poorly fitted or top-dose-only effect, or another doubt; inactive = no such curve, though single readings can be large; an effect the other way counts as inactive or inconclusive;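 note: plate controls were neutral wells for no effect and buffer without enzyme for full effect; nearly all actives have a fitted effect of over 40% in size; top concentration of the series not given in the record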
# Target sequence (P25779 123-467 limits assumed): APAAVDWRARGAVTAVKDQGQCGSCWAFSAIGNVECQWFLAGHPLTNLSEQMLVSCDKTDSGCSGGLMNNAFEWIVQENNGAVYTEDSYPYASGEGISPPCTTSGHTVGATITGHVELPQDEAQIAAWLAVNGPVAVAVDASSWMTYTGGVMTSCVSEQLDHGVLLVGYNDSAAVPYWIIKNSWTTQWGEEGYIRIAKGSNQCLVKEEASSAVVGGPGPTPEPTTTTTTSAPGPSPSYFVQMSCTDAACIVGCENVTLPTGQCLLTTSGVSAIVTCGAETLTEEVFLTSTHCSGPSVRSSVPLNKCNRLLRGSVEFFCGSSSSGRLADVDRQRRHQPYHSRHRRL
#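 Z-FR-AMC hydrolysis (2 uM substrate) by cruzain (1.5 nM) monitored kinetically at ex 360/em 450 nm after 15 min room-temperature compound exposure; 0.01% Triton X-100, pH 5.5, 5 mM DTT.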
# 2A StopGo: lowers the luciferase signal of an FMDV 2A StopGo reporter; human cells with a luciferase reporter of 2A StopGo recoding; control for the full effect not named in the record; Potency, µM (series often up to 57.9 µM), for inactives: at the top dose signal change, negative = less light; 1.2% of 410,000 active; active = well fitted falling curve with a large enough effect; inconclusive = small, poorly fitted or top-dose-only effect; inactive = no such curve, though single readings can be large or run the other way; tested in HEK293T cells; note: % is set by controls: 0 for no effect and ±100 for the full control effect; nearly all actives have a fitted effect of over 45% in size; luciferase light after 4 h
# Cruzain noTriton: blocks cruzain activity in detergent-free assay; P25779; purified cruzain, Z-FR-AMC fluorescence, no detergent; Potency, µM, without a hit: max response, negative = inhibition, usual class: inhibitors; 2.3% of 200,000 active; active = well fitted curve in the direction sought with a large enough effect; inconclusive = small, poorly fitted or top-dose-only effect, or another doubt; inactive = no such curve, though single readings can be large; an effect the other way counts as inactive or inconclusive;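 note: plate controls were enzyme without inhibitor for no effect and buffer without enzyme for full effect; nearly all actives have a fitted effect of over 40% in size; top concentration of the series not given in the record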
#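 Purified cruzain at 1.5 nM, pre-incubated 15 min with compound at room temperature in 100 mM sodium acetate pH 5.5, 5 mM DTT, 0.00005% Triton X-100. Reaction started with 2 uM Z-FR-AMC; AMC fluorescence increase over 60 s gives rate.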
# Marburg entry inh: inhibitors of Marburg virus binding or cell entry; Marburg virus pseudotyped entry inhibition, cell reporter; control for the full effect not named in the record; about a third of the inactives were read at about 46 µM; Potency, µM (series often up to 37.8 µM), without a hit: at the top dose activity change, negative = inhibition, hits mostly inhibitors; 1.8% of 300,000 active; AID 540276; active = well fitted inhibition curve with a large enough effect; inconclusive = small, poorly fitted or top-dose-only effect, or effect the other way; inactive = flat fitted curve, though single readings scatter; tested in HEK293 cells; about a fifth of its hits are not listed in these tables; note: % is set by controls: 0 for no effect and ±100 for the full control effect; luciferase read-out
# LASV entry inh: inhibitors of Lassa virus binding or cell entry | Lassa virus pseudotype entry inhibition, cell reporter; control for the full effect not named in the record | Potency, µM (highest dose often 37.9 µM), inactives show at the highest dose activity change, negative = inhibition, usual class: inhibitors | 1.2% of 300,000 active | AID 540256; active means well fitted inhibition curve with a large enough effect; inconclusive means small, poorly fitted or top-dose-only effect, or effect the other way; inactive means flat fitted curve, though single readings scatter; tested in HEK293 cells; note: % is set by controls: 0 for no effect and ±100 for the full control effect; nearly all actives have a fitted effect of over 50% in size; luciferase read-out
# * marks the source's active call; other numbers are inactive results; u = inconclusive; x = no result given; [ ] = another dose, or the depositor's remark. Unless noted, calls come from the whole dose curve; as a rule, active means well fitted rising curve with a large enough effect; inconclusive means small, poorly fitted or top-dose-only effect; inactive means no such curve, though single readings can be large or run the other way. Potency is the fitted concentration of half-maximal effect.
SMILES	RE007 growth inh	Marburg entry inh	NS1 function inh	2A StopGo	LASV entry inh	Cruzain inh Det	Cruzain noTriton	SARS PLpro yeast
Cn1c(=O)c2c(SCc3ccccc3)nc(C3CC3)nc2n(C)c1=O	6%	2%[46.1 µM]	2%	-21%	-9%[46.1 µM]	x	x	0%
O=C(COC(=O)c1nc(Cl)ccc1Cl)NC1CCCCCC1	0%	12%	x	4%	3%	x	x	2%
CSc1ncc(CN2CCc3c([nH]c4ccccc34)C2C(C)(C)C)cn1 (stereo not given)	8%	-24%	-23%	u	u	x	x	-4%
COc1ccc(N(C(C)C(=O)NCCSCc2cccc(Cl)c2)S(C)(=O)=O)cc1 (stereo not given)	-1%	x	-31%	0%	x	x	x	-4%
CCc1ccc(N2CCN(S(=O)(=O)CC34CCC(CC3=O)C4(C)C)CC2)cc1 (stereo not given)	-4%	-25%[46.1 µM]	5%	-1%	u	x	x	-6%
COC(=O)CN(C#N)c1nc(NCc2ccccc2)nc(OC)n1	6%	x	12%	-20%	x	x	x	2%
O=C(CSc1nncn1-c1ccccc1)Nc1ccc(N2CCOCC2)cc1	u	-10%	2%	-4%	-12%	0.9%	6%	-3%
Cc1ccc(COCCN2CCN(S(=O)(=O)c3ccc(C)cc3)CCC2=O)cc1	-13%	-13%	-19%	-24%	u	-0.6%	u	-8%
CN(C)CCCNC(=O)C1(O)c2cc(Br)ccc2NC(=O)N1c1c(F)cccc1F (stereo not given)	14%	x	0%	4%	x	x	x	-1%
O=C1CC(O)(C(F)F)Oc2ccc3ccccc3c21 (stereo not given)	-16%	4%	-64%	11%	18%	1.7%	2%	-7%
CCc1ccccc1Nc1nn2c(=O)c3ccc(C(=O)NCc4ccccc4OC)cc3nc2s1	x	x	x	-10%	u	-4.1%	13µM*	x
CCOC(=O)N1CCN(C(=O)C2CCN(S(=O)(=O)c3ccc(F)cc3)CC2)CC1	1%	2%[46.1 µM]	-1%	-8%	5%	x	x	1%
COc1ccc(/C=C(\NC(=O)c2ccccc2)C(=O)NCc2cccnc2)cc1	14%	2%[46.1 µM]	3%	-2%	-19%[46.1 µM]	x	x	2%
O=C(NC1CCCCC1)C(c1ccc2ncccc2c1)N(Cc1cccs1)C(=O)c1cccs1 (stereo not given)	6%	u	-34%	-22%	u	4.5%	10%	-20%
CCOC(=O)c1ccccc1NC(=O)Cn1c2ncccc2c(=O)n1-c1ccccc1	x	x	x	-21%	-23%[46.1 µM]	-0.6%	-14%	x
CC(OC(=O)c1ccc2noc(-c3ccccc3)c2c1)C(N)=O (stereo not given)	-6%	6%[46.1 µM]	6%	-8%	-3%[46.1 µM]	x	x	1%
O=C(CCCCCN1C(=O)c2cccc3cccc(c23)C1=O)NCCCO	4%	-3%	-5%	-19%	-23%	x	x	2%
COC(=O)Nc1sc2c(c1C(=O)NCc1ccco1)CCC2	-3%	24%	-5%	11%	-8%	-11%	-4%	-12%
CCOC(=O)Cc1csc(NC(=O)c2cc(OC)cc(OC)c2)n1	-21%	3%	-9%	u	-1%	-4.1%	-13%	-2%
CC(=O)Nc1ccc(C(=O)OCC(=O)c2ccc(C)c([N+](=O)[O-])c2)cc1	9%	-6%	-21%	-4%	-4%	-3.9%	7%	-6%
COc1ccccc1N1CCN(C(=O)Cn2c(=O)n3nc(-c4ccc(C)cc4)nc3c3ccccc32)CC1	x	x	x	-25%	x	1.1%	-2%	x
CCOc1cc(C(=S)N2CCOCC2)ccc1O	-5%	7%	-90%	-25%	4%	3.5%	-5%	-6%
CN(CCC#N)C(=O)Cn1nc(Cc2ccncc2)c2ccccc2c1=O	-17%	x	-9%	-4%	x	1.2%	-12%	8%
COc1cccc(N2CC(NC(=O)C3CCCCC3)CC2=O)c1 (stereo not given)	x	x	x	-16%	u	-2.9%	-1%	x
COc1cccc(CN2CCC(C(=O)N3CCN(Cc4ccc5c(c4)OCO5)CC3)CC2)c1	7%	u	5%	-27%	u	x	x	1%
CC(=O)OCc1c(COC(C)=O)[n+](=O)c2ccccc2n1[O-]	5%	-4%	1%	-1%	-3%	-1.3%	-1%	-3%
COc1ccc(C(C(=O)NC2CCCCC2)N(Cc2cccs2)C(=O)Cc2c[nH]c3ccccc23)cc1 (stereo not given)	0%	u	20%	u	u	-2.0%	-23%	-1%
COc1ccc2c(c1O)-c1ccccc1CCN(C)C2	-29%	x	-4%	-11%	x	x	x	1%
O=C(NCC1CCCO1)c1ccc(Cl)c(S(=O)(=O)N2CCCCC2)c1 (stereo not given)	-15%	-27%	-3%	0%	-13%	x	x	0%
O=C(NCc1ccccc1)C1=C[C@H](c2coc3ccccc3c2=O)C[C@H](OCc2ccc(CO)cc2)O1	3%	x	-1%	-20%	x	x	x	-1%
COc1cccc2cc(C(N)=O)/c(=N/NC(=O)COc3ccc(Cl)cc3)oc12	x	3%	5%	x	x	1.6%	u	16%
CCCN(CCC)S(=O)(=O)c1ccc(C(=O)NCc2ccc3c(c2)OCO3)cc1	20%	x	-44%	-20%	x	-4.6%	4%	4%
CCCCN(CC)C(=O)C1CCC(=O)N(c2ccc(OC)cc2)C1c1ccc(OC)c(OC)c1 (stereo not given)	23%	1%	3%	10%	2%	x	x	x
O=C(NNC(=S)Nc1ccccc1C(F)(F)F)c1ccc(Br)o1	-4%	x	1%	16%	x	x	x	-2%
COc1ccccc1CCN1CCCC(CN(C)C(=O)c2ccc3nc[nH]c3c2)C1 (stereo not given)	-22%	27%	-2%	-15%	4%	x	x	-2%
Cc1cccc2cc(CN(C(=O)c3cccs3)c3ccccc3)c(=O)[nH]c12	-17%	-43%	10%	-3%	4%	-5.3%	-9%	2%
CCOC(=O)c1cc(NC(=O)c2ccc(OC)cc2)c(=O)n2c1oc1ccc(Cl)cc12	x	-1%[46.1 µM]	x	-18%	0%[46.1 µM]	-1.0%	-5%	x
O=C(CSc1nc(-c2ccccc2)cc(=O)[nH]1)Nc1ccccn1	-2%	8%[46.1 µM]	-13%	-2%	-1%	8.1%	u	6%
Cc1ccc(SCc2cn3cccnc3n2)cc1	3%	29%	-47%	27%	15%	1.7%	-7%	1%
CC(C)CNS(=O)(=O)c1cc(C(=O)OCC(=O)c2ccc3c(c2)OCCO3)c(Cl)cc1Cl	5%	u	u	u	u	-1.6%	u	6%
Cc1nc2cc(C(F)(F)F)ccc2n1C1CCN(Cc2nnnn2Cc2cccs2)CC1	-9%	-15%	-9%	u	7%	-4.5%	u	1%
COc1ccccc1C(=O)N/C(=N/c1nc(C)cc(C)n1)Nc1ccccc1	u	u	-7%	-20%	-9%[46.1 µM]	x	x	1%
CCc1ccc(Nc2sc(C(=O)c3ccccc3)c(N)c2S(C)(=O)=O)cc1	x	-2%[46.1 µM]	x	-21%	0%[46.1 µM]	-10.0%	-8%	x
Cc1cc(NC(=O)CCc2ccccc2)c([N+](=O)[O-])cc1C	-1%	u	-24%	7%	u	-7.1%	-4%	-2%
Cn1cnc2cc(NS(=O)(=O)c3ccc(Br)cc3)ccc21	-4%	u	-7%	0%	4%	-2.5%	5%	x
Cc1ccc(COCC(CC(C)C)N2CCN(C(=O)c3cccc(C(F)(F)F)c3)CCC2=O)cc1 (stereo not given)	6%	-33%	-33%	-27%	u	-8.1%	u	0%
COc1cc2c(cc1OC)CN(C(=O)CN1CCN(S(=O)(=O)c3ccccc3Br)CC1)CC2	-5%	x	-26%	3%	x	x	x	5%
COc1cc(-c2nnc(SCC(=O)Nc3cc(C)on3)n2C)cc(OC)c1O	0%	11%	0%	6%	u	3.2%	-4%	9%
O=C(C1=NN[C@@H]2C(=O)N(c3cccc(F)c3)C(=O)[C@H]12)C(c1ccccc1)c1ccccc1	-13%	u	23%	-10%	1%	-5.2%	-27%	7%
CCOC(=O)C(C)Sc1ncc(-c2ccccc2)cn1 (stereo not given)	-14%	u	x	34%[activator]	27%[46.1 µM]	x	x	0%
Cc1c(C)n(-c2ccccc2)c2ncnc(NCCCN(C)C)c12	3%	x	5%	-26%	x	x	x	3%
O=C(Nc1cc(Cl)ccc1-n1cncn1)c1ccc([N+](=O)[O-])s1	-19%	-14%	-105%	-16%	u	x	x	-28%
O=S(=O)(NCC1CCCO1)c1cc(Cl)ccc1Cl (stereo not given)	-12%	-9%	-1%	x	14%	5.2%	-4%	-6%

# High-throughput results (PubChem)
